CapD inh: inhibitors of Bacillus anthracis CapD enzyme | AID 492967 | purified CapD enzyme, fluorescence intensity read-out; hits give low values; some hits fall short of the stated cut | hit rate 0.23% among 140,000 | z-score (concentration not given with the values);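 active = z-score under -4 in either of two replicates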;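 also: stock transfer was 100 nL into about 40 µL; score is relative to mean and spread of the plate; one replicate is shown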
AID504770: E. coli YBA685 growth inhibition, screen for V. cholerae RctB inhibitors. AID 504770. hit rate 0.27% among 130,000. z-score (test concentration not listed). E. coli YBA685 rctB-dependent plasmid, OD600 growth, 3 h; hits give low values;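 active = z-score under -2 on both plates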;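 also: wells of about 30 µL received 100 nL stock; score is relative to mean and SD of the test wells; the first replicate is given; strong numbers were not always called active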
* = called active by the depositor; . = no result given. Not all compounds are listed; count on the stated rates, not on these rows.

| SMILES | CapD inh | AID504770 |
| --- | --- | --- |
| CCC1CCCCN1C(=O)Cn1c(SCc2cccc(Cl)c2)nc2ccncc21 (centres undefined) | -0.21 | -0.65 |
| Cc1ccccc1-n1ncc2c(=O)n(CCN3CCCCC3)cnc21 | . | 0.15 |
| CC1CC(C)CN(S(=O)(=O)c2ccc(C(=O)N3CCOCC3)cc2)C1 (centres undefined) | . | 1.5 |
| Cc1ccc(C(c2nnnn2C2CCCC2)N(Cc2cccnc2)CC2CCCO2)cc1 (centres undefined) | . | -0.75 |
| CC(C)(C)c1ccc(N/N=C/c2ccc(OCc3ccccc3)cc2)cc1 | 2.38 | . |
| CN(c1ccccc1C(=O)NCC1CCCO1)S(C)(=O)=O (centres undefined) | . | 0.4 |
| COc1ccc(CNC(=O)Cn2c3ccccc3c3nc(=O)cc(C)n32)cc1 | -1 | 2.95 |
| N=C1/C(=C2\Nc3ccccc3S2)CC(=O)N1Cc1ccco1 | . | 2.05 |
| CNc1ccccc1C(=O)OCC(=O)c1c[nH]c2ccccc12 | . | 1.05 |
| CCCN(C(=O)C(C)C)c1nnc(-c2cc(OC)c(OC)c(OC)c2)s1 | . | 2.2 |
| CC(=O)NC1=NN(C(C)=O)C(c2cccc3ccccc23)N1C(C)=O (centres undefined) | -0.27 | -0.7 |
| Cc1cccn2c(=O)cc(CN3CCN(c4cnn(-c5ccccc5)c(=O)c4Cl)CC3)nc12 | . | -0.25 |
| S=C(NCc1ccc2c(c1)OCO2)N1CCN(c2ccccn2)CC1 | . | 0.25 |
| CC(Oc1ccc(Cl)cc1)C(=O)NCCCn1ccnc1 (centres undefined) | -0.03 | -0.05 |
| CCN1CCCC1CNC(=O)c1ccccc1Sc1ccccc1C#N (centres undefined) | . | -1.35 |
| Cc1ccc(-c2cc(C(N)=O)c3cc(F)ccc3n2)cc1 | 49.4 | -0.8 |
| COCCn1c(COc2ccccc2)nc2ccccc21 | -0.33 | 0.55 |
| CC1=NN(c2ccc(-c3csnn3)cc2)C(=O)C1 | -1.23 | -0.85 |
| COC(=O)C1=C(C)NC2=C(C(=O)CC(c3ccc4c(c3)OCO4)C2)C1c1ccc(Br)cc1 (centres undefined) | 75 | . |
| CC(C)CCN(Cc1ccco1)S(=O)(=O)c1csc(C(N)=O)c1 | -0.07 | 0.35 |
| Cc1cc(NC2CCCCC2)n2ncnc2n1 | -0.12 | -0.5 |
| CC1(C)Cc2nc3sc(C(=O)NCCO)c(N)c3cc2CS1 | -0.38 | 0.9 |
| N#CCCN1CCN(S(=O)(=O)c2ccc(S(=O)(=O)N3CCCC3)cc2)CC1 | 0.52 | 0 |
| Cc1cc(C)n2nc(C(=O)OCc3ncc(-c4ccccc4)o3)nc2n1 | . | 0.2 |
| COc1ccc(CN2C3CCCC2CC(NC(=O)NC2CCCCC2)C3)cc1 (centres undefined) | . | -0.3 |
| CCOC(=O)CNC(=O)c1c(OC)cccc1OC | 1.35 | . |
| CCc1cccc(-n2nnc(S(=O)(=O)c3ccccc3)c2C)c1 | 0.25 | 1 |
| Cc1cc2nc(C)c(CCC(=O)O)c(C)n2n1 | . | -0.45 |
| NC(=O)c1cccc(S(=O)(=O)N2CCOCC2)c1 | . | -0.9 |
| COc1ccc(-n2nc3c(c2NC(=O)c2ccccc2C(F)(F)F)CSC3)cc1 | -0.51 | 0.35 |
| c1ccc2c(NCC3CCCO3)nc(SCc3ccncc3)nc2c1 (centres undefined) | 1.47 | . |
| O=C(Nc1ccc2oc3ccccc3c2c1)c1ccc2nc[nH]c2c1 | . | 0 |
| O=C(c1ccccc1)c1ccc(OC(=O)c2ccc(Br)o2)cc1 | -0.02 | -0.3 |
| O=C(Nc1nnc(C(F)(F)F)s1)c1c(F)cccc1F | -0.715 | . |
| O=C1CSc2ccc(C(=O)OCC(=O)N3CCCc4ccccc43)cc2N1 | . | 0.1 |
| O=C(c1ccccc1)C1CCN(S(=O)(=O)c2ccc(Cl)cc2)CC1 | -0.52 | -1.05 |
| CCn1c(=O)c(C(=O)CN2CCCCC2)c(N)n(Cc2ccccc2)c1=O | . | -0.1 |
| CCCCN(CCCC)S(=O)(=O)c1cc2c(c([N+](=O)[O-])c1)-c1c(cc(S(=O)(=O)N(CCCC)CCCC)cc1[N+](=O)[O-])C2=O | -0.27 | . |
| COC(=O)CSc1cc(C)c(Cl)cc1Cl | -0.03 | . |
| CC1=CCCC(C)(C)C1/C=C/C(C)=N/O (centres undefined) | 0.245 | -0.85 |
| C=CCNS(=O)(=O)c1ccccc1C(F)(F)F | -0.785 | -0.8 |
| CCCNC(=O)Cn1c(=O)c2cccn2c2ccccc21 | 0.115 | -0.45 |
| Cc1nn(-c2ccccc2)c(C)c1CN1CCN(S(=O)(=O)c2ccc(F)c(F)c2)CC1 | 0.7 | . |
| CCOC(=O)c1c(NC(=O)c2cc3ccccc3oc2=O)sc2c1CC(C)(C)OC2 | -1.25 | . |
| N#Cc1ccc(COC(=O)CNC(=O)c2ccccc2)cc1 | -0.765 | -1.4 |
| Cc1cc(=O)oc2cc(OCC(=O)N3CCc4ccccc4C3)ccc12 | 6.14 | -0.5 |
| O=C(NCC1OCCc2ccccc21)c1ccccc1 (centres undefined) | 0.44 | -0.4 |
| COc1cc(C2C(C(=O)OCCc3ccccc3)=C(C)NC3=C2C(=O)CC(C)(C)C3)ccc1OC(C)=O (centres undefined) | 27.7 | . |
| CN(C1CCCCC1)S(=O)(=O)c1cccc2nonc12 | -0.955 | . |
| CC(C)C(NC(=O)c1ccc(CSc2ccccn2)o1)C(=O)Nc1ccc2ccccc2c1 (centres undefined) | 0 | . |
| CC(C)NC(=O)C1CCN(c2ccc(S(=O)(=O)N3CCOCC3)cc2Cl)CC1 | . | 0.05 |
| O=C1/C(=C/c2cccc3ccccc23)Nc2ccccc21 | 0.63 | 1.6 |
| Cc1cc2ncn(C(=O)N(C)C)c2cc1C | . | -0.2 |
| N#Cc1ccc(C(=O)OCC(=O)NC23CC4CC(CC(C4)C2)C3)cc1 | 0.035 | 0.25 |
| CCOC(=O)Cc1csc(SCC(=O)C(C#N)c2nc(C)cs2)n1 (centres undefined) | . | 0.95 |
| CCCOP(=O)(c1ccccc1)c1ccccc1 | 0 | -0.5 |
| CCOC(=O)C1CCN(Cc2ccccc2)CC1=O (centres undefined) | -0.235 | -0.65 |
| O=C(O)CSCC(=O)N1CCC(c2nnc(-c3ccccc3)o2)CC1 | -0.335 | . |
| CCOC(=O)Cc1c(C)nc2nc(N)[nH]n2c1=O | . | 0.55 |
| Cc1cc(C)n(CCSCC(=O)O)n1 | 0.3 | -0.65 |

Next section.
| SMILES | CapD inh | AID504770 |
| --- | --- | --- |
| CC(C)NC(=O)CCCN1C(=O)C(c2ccccc2)Oc2cccnc21 (centres undefined) | 0.45 | -1.25 |
| Cn1[nH]c(CP(=O)(c2ccccc2)c2ccccc2)cc1=O | . | 0.1 |
| Cc1sc(-c2cccnc2)nc1OC(=O)c1cc(Cl)cc(Cl)c1 | -0.89 | . |
| Cc1ccccc1SCc1c(C(=O)c2ccccc2)oc2ccccc12 | -1.19 | . |
| Cc1cc(C)c(C#N)c(SCC(=O)N(c2ccccc2)C2CCS(=O)(=O)C2)n1 (centres undefined) | . | -0.45 |
| COc1ccc([C@@H]2[C@@H](C(=O)c3ccccc3)N3c4ccc(Cl)cc4C=C[C@@H]3C2(C#N)C#N)cc1OC | -0.135 | . |
| NC(=S)NCC1CCCO1 (centres undefined) | . | -0.3 |
| Cc1ccc2nc(C)n3c4ccccc4c(NC=O)c3c2c1 | -0.565 | -1.15 |
| O=C(CC1c2ccccc2Oc2ccccc21)NCCOc1ccccc1Cl | 0.145 | 0.4 |
| COc1ccc(CCN(C)C(=O)c2ccoc2)cc1OC | -0.38 | . |
| CCN(CC)S(=O)(=O)c1ccc(-c2csc(Nc3cccc(OC)c3)n2)cc1 | 59.3 | 1.05 |
| O=C1CC(c2nc3ccccc3[nH]2)CN1c1cccc2ccccc12 (centres undefined) | -0.325 | 2.4 |
| CNCCCC1c2ccccc2C=Cc2ccccc21 | -0.365 | . |
| CC1=C(C(=O)NCc2ccco2)C2(CCCCC2)OC1=O | 0.48 | -0.15 |
| CC(Sc1nnc(Nc2ccc(C(C)C)cc2)s1)C(N)=O (centres undefined) | . | -0.75 |
| O=C(/C=C/Nc1ccccc1C(F)(F)F)c1ccco1 | -1.83 | -0.15 |
| CCOc1ccccc1C1C(C#N)=C(SC)NC(=O)C1C#N (centres undefined) | 0.775 | -0.95 |
| CCC(C)n1c(SCC(=O)Nc2nccs2)nc2ccsc2c1=O (centres undefined) | 0.12 | . |
| COC(=O)C1C(c2ccc(N(C)C)cc2)C(C(=O)OC)S(=O)(=O)CS1(=O)=O (centres undefined) | -0.03 | -1 |
| COCCNC(=O)Cc1c(C)nc2c(-c3ccccc3)c(C)nn2c1C | -0.415 | -0.45 |
| Cc1ccc(C(=O)CC(Sc2ccccc2N)c2ccsc2)cc1 (centres undefined) | -1.56 | 1.1 |
| COCCOc1cc(N2C(=O)CSCC2=O)c(Cl)cc1Cl | 0.075 | . |
| O=C(CSc1cccs1)Nc1ccc(F)c(Cl)c1 | -0.295 | -0.9 |
| CO/N=C(\C(=O)O)c1csc(N)n1 | 0.245 | -0.45 |
| Cc1c(C(=O)Oc2cc(Cl)cc(Cl)c2)n(C)oc1=O | 0.935 | 0.05 |
| CCC(C)NC(=O)CSc1nc2ccccc2c(=O)n1CCCC(=O)NCCc1ccc(OC)c(OC)c1 (centres undefined) | -0.05 | . |
| Clc1ccc(COc2ccccc2-c2ccnc(-c3ccncc3)n2)cc1 | -0.565 | . |
| Cc1ccc(-c2c(C)sc3ncn(C(C)C(=O)O)c(=O)c23)cc1C (centres undefined) | -0.51 | -0.9 |
| COc1cccc(CN(C)C(=O)/C=C/c2ccco2)c1OC | . | 0.45 |
| Cc1cc(C)c2c(-c3ccccc3)nc(SCC#N)n2n1 | . | 1.95 |

The closing 2 compounds of the part above open the next one:
| SMILES | CapD inh | AID504770 |
| --- | --- | --- |
| COc1cccc(CN(C)C(=O)/C=C/c2ccco2)c1OC | . | 0.45 |
| Cc1cc(C)c2c(-c3ccccc3)nc(SCC#N)n2n1 | . | 1.95 |
| C/C(=N/O)c1ccc(N2C(=O)C3C4C=CC(C4)C3C2=O)cc1 (centres undefined) | 0.175 | 0.15 |
| CCN(CC)S(=O)(=O)c1ccc(N2CCCC2)c(C(=O)OCC(=O)c2cccs2)c1 | . | 1.35 |
| O=c1[nH]c2ccccc2cc1CN(CC1CCCO1)S(=O)(=O)c1ccccc1 (centres undefined) | . | -0.3 |
| CCCCn1nc(C(N)=O)c2ccccc2c1=O | . | 1.2 |
| Cc1ccc(C(=O)COC(=O)C2C3C=CC(C3)C2C(=O)OCC(=O)c2ccc(C)c(C)c2)cc1C (centres undefined) | 0.13 | 0.35 |
| O=C1COc2cc(O)ccc21 | . | -0.65 |
| O=C(Nc1ccccc1C(=O)O)c1ccccc1Cl | -0.35 | 1.95 |
| COc1ccc(S(=O)(=O)NCC(c2ccc3c(c2)OCO3)N2CCN(C)CC2)cc1 (centres undefined) | . | 0.15 |
| O=C(N/N=C/c1ccc(OC(=O)c2ccco2)cc1)c1ccccn1 | . | -0.8 |
| O=C(c1ccc(S(=O)(=O)N2CCOCC2)cc1)N1CCN(c2cccc(Cl)c2)CC1 | . | 0.05 |
| COc1ccc(C2=NCC(CSc3nnc(-c4ccc5c(c4)OCO5)o3)S2)cc1 (centres undefined) | . | -0.35 |
| COC(=O)c1sc2nc[nH]c(=O)c2c1C | 3.83 | -0.55 |
| CC(C(=O)O)N1C(=O)/C(=C2/C(=O)N(C)c3ccccc32)SC1=S (centres undefined) | -0.78 | 0.55 |
| CCOC(=O)C1=C(CSc2nc(C)cc(C)c2C#N)OC(N)=C(C#N)C1c1ccc(F)cc1 (centres undefined) | 0.16 | . |
| O=C(O)CSC1CC(=O)N(c2cccc(C(F)(F)F)c2)C1=O (centres undefined) | . | -0.1 |
| COc1ccc(-[n+]2cc([O-])on2)cc1 | 0.49 | -0.65 |
| CC(Sc1ccccc1)C(=O)Nc1ccccc1Cl (centres undefined) | 0.125 | -0.95 |
| CCCCN(C)C(=O)Cn1ncc2c(C)n(Cc3ccc(C)cc3)c(C)c2c1=O | 2.49 | 0.15 |
| CC(C(=O)N1CCN(c2ccc(F)cc2)CC1)N1C(=O)c2ccccc2C1=O (centres undefined) | -1.66 | 2.5 |
| CCO/C(C)=C(\C#N)C(=O)O | . | 1.15 |
| CC(C)(C)c1ccc(C(=O)Nc2c3c(nn2-c2ccc(Cl)cc2)CS(=O)(=O)C3)cc1 | -0.62 | . |
| CCOc1cc(C=C2C(=O)NC(=O)NC2=O)ccc1OCCOCCOc1ccc(C)cc1 | -0.235 | . |
| O=C(O)CCC(C(=O)O)N1C(=O)/C(=C\c2ccco2)SC1=S (centres undefined) | . | -0.35 |
| COc1ccc(N=C2SCC(=O)N2c2ccc(OC)cc2)cc1 | -0.84 | -0.55 |
| COc1ccc(C2CC(C(F)(F)F)n3ncc(C(=O)N4CCN(c5ccccc5OC)CC4)c3N2)cc1OC (centres undefined) | 0.295 | . |
| COC(=O)CNC(=O)CC12CC3CC(CC(C3)C1)C2 | . | -0.8 |
| Cc1ccc(Cl)cc1NC1=NC(=S)N(C(C)C)C12CCCCC2 | -0.265 | . |

Structures shown so far that have a CF3 group, in the order listed:
| SMILES | CapD inh | AID504770 |
| --- | --- | --- |
| COc1ccc(-n2nc3c(c2NC(=O)c2ccccc2C(F)(F)F)CSC3)cc1 | -0.51 | 0.35 |
| O=C(Nc1nnc(C(F)(F)F)s1)c1c(F)cccc1F | -0.715 | . |
| C=CCNS(=O)(=O)c1ccccc1C(F)(F)F | -0.785 | -0.8 |
| O=C(/C=C/Nc1ccccc1C(F)(F)F)c1ccco1 | -1.83 | -0.15 |
| O=C(O)CSC1CC(=O)N(c2cccc(C(F)(F)F)c2)C1=O (centres undefined) | . | -0.1 |
| COc1ccc(C2CC(C(F)(F)F)n3ncc(C(=O)N4CCN(c5ccccc5OC)CC4)c3N2)cc1OC (centres undefined) | 0.295 | . |

Compound activity deposited in PubChem BioAssay by ICCB-Longwood Screening Facility, Harvard Medical School.
